# PINK1 modulator – changes PINK1 expression. PINK1 immunofluorescence, high-content cytometry, 24 h. Potency, µM (highest dose often 76.6 µM), without a hit: at the top dose activation (PINK1 increase), most hits filed as activators. actives 0.2% (n = 410,000). AID 624263; active = well fitted activation curve with a large enough effect; inconclusive = small, poorly fitted or top-dose-only effect; inactive = flat fitted curve, though single readings scatter; cell line not stated here;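 note: potency is the fitted concentration of half-maximal effect; % of control where 0% means no effect; nearly all actives have a fitted effect of over 65% in size; a mitochondrial uncoupler was the plate control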
#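 PINK1 protein level read as immunofluorescence by microplate cytometer in a fixed, stained stable cell line after 24 h exposure to five compound concentrations, with CCCP as control.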
# TRPML1 agonist – human mucolipin-1 channel agonism | actives 0.12% (n = 410,000) | AID 624414 | activation, % (no concentration beside the values) | TRPML1-expressing cells, Ca2+ dye fluorescence, FDSS; host cell line not named in the record; reference of the full effect not given here; in the data active = activation above about 50%; inconclusive = about 30% to 50%; inactive = below about 30%; note: 0% is about no effect; the text of the record puts the active cut at 80%
# Target sequence (Q9GZU1 whole entry, looked up): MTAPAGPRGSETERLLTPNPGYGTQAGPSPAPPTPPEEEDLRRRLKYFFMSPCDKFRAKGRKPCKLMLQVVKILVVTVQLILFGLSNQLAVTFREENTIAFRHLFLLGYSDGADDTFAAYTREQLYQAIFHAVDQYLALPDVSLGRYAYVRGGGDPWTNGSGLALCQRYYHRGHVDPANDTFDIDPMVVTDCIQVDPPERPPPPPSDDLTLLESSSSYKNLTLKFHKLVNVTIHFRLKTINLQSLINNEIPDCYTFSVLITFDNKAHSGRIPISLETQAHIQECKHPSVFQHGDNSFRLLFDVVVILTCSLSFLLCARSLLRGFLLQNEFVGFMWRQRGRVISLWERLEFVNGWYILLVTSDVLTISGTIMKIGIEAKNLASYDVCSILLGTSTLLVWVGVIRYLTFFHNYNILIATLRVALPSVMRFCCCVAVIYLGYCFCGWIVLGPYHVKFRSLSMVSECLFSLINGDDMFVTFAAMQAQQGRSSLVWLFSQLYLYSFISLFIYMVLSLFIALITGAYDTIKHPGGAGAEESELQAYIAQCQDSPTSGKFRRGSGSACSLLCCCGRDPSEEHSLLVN
#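 Calcium fluorescence on an FDSS kinetic reader gave the read-out. Tet-induced TRPML1-DL cells were plated overnight, dye-loaded (Ca8 with quencher, 45-90 min, room temperature, dark), then read 110 s after compound addition, and again 110 s after 4uM final 54-4 (EC80).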
# Active calls of the source: *; ? = inconclusive.
Structure	PINK1 modulator	TRPML1 agonist
CC(=O)N1CCCc2ccc(NS(=O)(=O)c3cccc(Cl)c3)cc21	0.0%	2.4
Cc1ccc(CNC(=O)CSc2ccc(-c3sc(-c4ccccc4)nc3C)nn2)cc1	1.2%	1.1
O=C(C1CCC(Cn2c(=O)c3sccc3n(Cc3cccc(F)c3)c2=O)CC1)N1CCCCC1 (stereo not drawn)	0.8%	0.4
COc1cccc(CNC(=O)C2CCC(CNS(=O)(=O)c3cccs3)CC2)c1 (stereo not drawn)	-0.3%	4.7
Cc1cccc(-n2ncc3c(N4CCN(CCO)CC4)ncnc32)c1	2.6%	0.0
COc1ccc(-c2nc(CSc3nc4ncccc4[nH]3)c(C)o2)cc1OC	1.5%	2.4
COc1ccc(CCNc2ncnc3onc(C)c23)c(OC)c1	2.6%	0.8
COc1ccc(N=c2nc(-c3ccccc3)n(-c3ccc(C)cc3)s2)cc1	?	0.4
Cc1ccc(NC(=O)C(=O)NCC(c2ccc3c(c2)OCO3)N2CCOCC2)c(C)c1 (stereo not drawn)	-1.0%	1.2
COc1cc(C(=O)Nc2ccc(NC(=O)c3ccc(Br)cc3)cc2)cc(OC)c1OC	1.1%	0.0
COc1ccc(NC(=O)c2cc(S(=O)(=O)N3CCCCCC3)cn2C)cc1Cl	5.5%	0.9
CC1CCN(S(=O)(=O)c2nnc(NC(=O)c3cccc(Br)c3)s2)CC1	-1.1%	-0.4
CCOc1ccc(C(=O)c2cn(CC(=O)Nc3ccc4c(c3)OCCO4)c3ccc(OC)cc3c2=O)cc1	7.4%	-0.4
CC(=O)Nc1nonc1-c1nnc(SCC(=O)Nc2cc(Cl)ccc2C)n1C	-1.5%	2.1
COc1ccccc1NC(=O)c1cc(C2CC2)nc2c1c(C)nn2-c1ccc(C)cc1	0.9%	-0.4
Cc1ccc2c(c1)C(c1ccc(F)cc1)N(C(=O)C(C)C)CC(=O)N2 (stereo not drawn)	-0.5%	-0.3
O=C(CCCn1c(=O)c2cccn2c2ccccc21)NCc1ccccc1Br	-0.9%	3.8
CCc1ccc(CN(Cc2ccco2)C(=O)COc2ccc(Cl)c(C)c2)cc1	15%	3.6
O=c1cc(-c2ccccc2)nc(SCc2nc(-c3cccc(C(F)(F)F)c3)no2)[nH]1	1.0%	0.2
CCc1cc(C(=O)NCc2ccc(F)cc2)no1	0.8%	-0.6
CCOc1cc2sc(N3CCC(C(=O)Nc4ccccc4Cl)CC3)nc2cc1Br	-0.3%	0.2
O=C(NCc1ccccc1Br)c1ccc2c(c1)nc1n2CCOC1	-0.2%	-0.3
COc1cccc(N2CCN(C(=O)Cn3nc(C)n4c(cc5c(OC)cccc54)c3=O)CC2)c1	-0.5%	-0.2
CC(C)S(=O)(=O)c1oc(-c2ccc(F)cc2)nc1S(=O)(=O)c1ccccc1	-1.2%	0.0
Cc1cccc(CNC(=O)C2CCCN(S(=O)(=O)c3cn(C)cn3)C2)c1 (stereo not drawn)	-1.2%	0.9
CCOC(=O)c1ccccc1NC(=O)Cn1ccn2nc(-c3ccc(OCC)cc3)cc2c1=O	0.6%	1.0
COc1ccc(NC(=O)c2ccco2)cc1NC(=O)C(C)(C)Oc1ccc(Cl)cc1	2.9%	0.4
COc1ccc(NC(=O)Cn2ncc3c4ccccc4n(Cc4ccccc4)c3c2=O)cc1OC	1.1%	4.3
COc1ccc(NC(=O)CSc2nc3c(c(=O)[nH]2)CN(Cc2ccccc2)CC3)cc1Cl	0.7%	-0.3
COc1cccc(Sc2nc(N(C)C)ncc2S(=O)(=O)c2ccc(Cl)cc2)c1	4.2%	0.4
O=C(c1cccc(Cl)c1)N1CCN(CCc2ccncc2)CC1	4.4%	-0.6
Cc1cccc(NC(=O)CS(=O)(=O)c2nc(-c3ccccc3)cn2-c2cccc(Cl)c2)c1C	1.4%	0.2
COc1cccc([C@H]2Nc3ccc(S(=O)(=O)Nc4cc(C)ccc4C)cc3[C@H]3C=CC[C@H]32)c1	?	1.2
CCCNC(=O)C(C)n1nc(C)c2c(C)n(-c3ccccc3)nc2c1=O (stereo not drawn)	-0.1%	-1.0
COC(=O)c1cc2sccc2n1Cc1ccc(F)cc1	1.5%	1.7
CCc1nn2c(=O)cc(COC(=O)c3ccc(NC(=O)c4cccs4)cc3)nc2s1	-0.8%	0.8
CCCOc1ccc(Oc2nc(NCC(C)C)nc(N(C)C)n2)nn1	0.6%	3.0
CCOC(=O)c1c(-c2ccccc2)oc2ccc(NS(=O)(=O)c3ccc(C(C)C)cc3)cc12	6.0%	-0.7
CCOc1ccc(/C=C/c2nc(C#N)c(NCc3ccccc3)o2)cc1	0.9%	0.2
Cc1ccc(C(=O)c2oc3ccccc3c2NC(=O)c2cc(-c3ccc(Cl)cc3)on2)cc1	1.5%	-0.5
Cc1cccc(N(CC(=O)NCCSCc2ccccc2)S(=O)(=O)c2ccccc2)c1C	-1.4%	0.3
Cc1nc2ccn(Cc3cccnc3)c(=O)c2cc1C(=O)Nc1ccc(OC(F)(F)F)cc1	1.4%	0.5
O=C1CS(=O)(=O)C2(C(=O)Nc3ccccc32)N1c1cccc(Cl)c1 (stereo not drawn)	-4.6%	0.3
COc1ccc(N2CC(NC(=O)COc3cccc(C)c3)CC2=O)cc1OC (stereo not drawn)	-0.4%	0.5
CCC(C)S(=O)(=O)c1oc(-c2cccs2)nc1S(=O)(=O)c1ccccc1 (stereo not drawn)	-1.0%	-0.7
COc1cc(Cl)c(C)cc1NC(=O)c1nn(C)c2c1CSc1ccccc1-2	2.8%	0.5
Cc1ccc(CNC(=O)Cc2c(C(=O)O)c(C)cn2C)cc1	-0.1%	-0.7
CC(=O)N1CCCC1c1nc2ccccc2n1Cc1c(F)cccc1Cl (stereo not drawn)	-1.9%	-1.2
CCOc1cc(Cn2c(-c3ccc(O)c(OCC)c3)nc3ccccc32)ccc1O	-1.3%	1.3
Cc1ccc(CN2C(=O)c3ccccc3Sc3ccc(C(=O)NCc4ccco4)cc32)cc1	0.6%	3.9
CC1CCN(C(=O)CN2c3ccc(Br)cc3-c3ccccc3S2(=O)=O)CC1	-1.1%	1.5
Cc1ccc(Nc2c(-c3ccccc3O)nc3ccc(Br)cn23)cc1	4.1%	0.9
COc1cccc(NC(=O)CSc2ncc(S(=O)(=O)c3ccc(C)c(C)c3)c(=O)[nH]2)c1	-1.1%	2.1
Cc1cc(C)c(NC(=O)Cn2c(=O)n(CCC(=O)NCc3ccc4c(c3)OCO4)c(=O)c3ccccc32)c(C)c1	-1.1%	0.3
COc1cccc(NC(=O)c2cnc(SCC(=O)N3CCOCC3)n(C)c2=O)c1	2.2%	1.5
Cc1cc(C)cc(-n2c(SCC(=O)N3CCCCC3)nc3c([nH]c4ccccc43)c2=O)c1	3.6%	1.8
Cc1ccc(C(=O)NCc2ccc3c(c2)CCN3C(=O)c2ccc(C)cc2)cc1	0.0%	1.9
CCC(=O)N1CCc2cc(Br)cc(S(=O)(=O)N3CCCC(C(=O)Nc4cccc(Cl)c4C)C3)c21 (stereo not drawn)	0.4%	0.0
CCN1C(C(=O)c2ccccc2)=C(OC(=O)COc2ccccc2)c2ccccc2S1(=O)=O	-0.6%	-0.2
CCCN(C(=O)CCc1nc(-c2ccccc2F)no1)c1ccc(CC)cc1	-0.4%	2.9

# Compound profiles, as listed above. Screens in order: PINK1 modulator | TRPML1 agonist
# Shown for `COc1cc(Cl)c(C)cc1NC(=O)c1nn(C)c2c1CSc1ccccc1-2` = 2.8% | 0.5
# Shown for `CCOc1ccc(/C=C/c2nc(C#N)c(NCc3ccccc3)o2)cc1` = 0.9% | 0.2
# Shown for `CC1CCN(C(=O)CN2c3ccc(Br)cc3-c3ccccc3S2(=O)=O)CC1` = -1.1% | 1.5
# Shown for `Cc1ccc(CNC(=O)Cc2c(C(=O)O)c(C)cn2C)cc1` = -0.1% | -0.7
# Shown for `Cc1ccc(CN2C(=O)c3ccccc3Sc3ccc(C(=O)NCc4ccco4)cc32)cc1` = 0.6% | 3.9

# Additional results.
Structure	PINK1 modulator	TRPML1 agonist
CCN1C(=O)c2ccccc2S(=O)c2ccc(C(=O)N3CCN(c4ccc(F)cc4)CC3)cc21 (stereo not drawn)	4.2%	-0.4
Cc1ccc(Cl)cc1N1CCN(C(=O)C2CCN(S(=O)(=O)c3cn(C)cn3)CC2)CC1	1.3%	0.4
Cc1ccc(/C=C/c2onc(C)c2S(=O)(=O)N2CCC(C(=O)Nc3cc(C)ccc3C)CC2)cc1	1.6%	-0.2
COc1ccc(-n2c(SCC(=O)N3CCc4ccccc43)nc3c([nH]c4ccccc43)c2=O)cc1	-4.3%	0.7
CCCCCCCNc1ccc(/C=C/c2ccnc3ccccc23)cc1	?	6.4
O=C(CCc1nc2cccnc2n1Cc1ccccc1)NCc1cccc(Cl)c1	4.9%	3.1
CCCN1CNc2c(c(=O)[nH]c(=S)n2CCc2cc(C)cc(C)c2)C1	3.4%	-0.8
COc1ccc(NC(=O)CCc2c(C)nn(-c3ccc(N4CCOCC4)nn3)c2C)cc1Cl	1.5%	0.2
CNC(=O)c1cccc(-n2c(C)nc3cccnc32)c1C	-0.1%	0.1
O=c1ccc2cc(S(=O)(=O)Nc3ccc(F)c(Cl)c3)ccc2[nH]1	?	0.8
COc1cccc(NC(=O)CNC(=O)Cn2c(C)cc3ccccc3c2=O)c1	2.5%	0.9
CCCCNC(=O)c1ccc2nc(-c3cccs3)c(-c3cccs3)nc2c1	3.7%	-0.4
CC(=O)c1cccc(NS(=O)(=O)c2ccc3[nH]c4c(c3c2)CCCCCC4)c1	6.7%	-0.1
Cc1cn2c(=O)c(S(=O)(=O)NCCc3ccc(Cl)cc3)c(C)nc2s1	0.1%	-0.8
Cc1ccc2nc(NC(=O)c3cc(=O)c4cc(Cl)ccc4o3)sc2c1	3.3%	1.2
COc1cc(Cl)c(C)cc1NC(=O)Cn1cc(S(=O)(=O)N2CCN(c3ccccc3F)CC2)c2ccccc2c1=O	1.4%	-0.4
Cc1ccc(CN(C(=O)COc2ccc(C(C)C)cc2)C2CCS(=O)(=O)C2)o1 (stereo not drawn)	2.2%	3.1
CCOCCc1nn2c(=O)cc(COC(=O)c3ccc(NC(=O)c4cccs4)cc3)nc2s1	3.3%	0.7
Cc1ccc(-c2nc(CS(=O)(=O)CC(=O)NCc3ccccc3Cl)c(C)o2)cc1	-0.4%	0.1
COc1ccc(OCc2ccc(-c3nc(C#N)c(N4CCN(C)CC4)o3)o2)cc1	-1.3%	0.3
O=C(COc1ccc(F)cc1)OCc1cc(=O)n2nc(-c3cccs3)sc2n1	-0.1%	-0.4
Cc1ccc(-c2nc(CNC(=O)Nc3ccccc3)c(C)o2)cc1	5.9%	1.8
COc1ccc(CNC(=O)CCC2N=C3c4ccccc4N=C(SCc4ccc(F)cc4)N3C2=O)cc1 (stereo not drawn)	0.1%	-0.4
Cc1ccc2c(c1)-c1c(c(C(=O)N3CCN(c4cc(C)ccc4C)CC3)nn1C)CS2	-0.3%	11
COc1ccc(N2CCN(C(=O)c3ccc(C)c(NC(=O)c4nsc5ccccc45)c3)CC2)cc1	1.6%	0.3
Cc1cc(=O)c2cc(C(=O)Nc3ccc(F)cc3)ccc2[nH]1	-1.9%	-0.4
Cc1ccc(-c2nc(SCC(=O)NCc3ccco3)c3c(=O)n(C)c(=O)n(C)c3n2)cc1	0.7%	-0.9
CC(=O)N1c2ccc(S(=O)(=O)NCCC(=O)Nc3ccc(C)cc3Br)cc2CC1C (stereo not drawn)	-0.4%	0.3
COCCNS(=O)(=O)c1cc(-c2nn3c(C)nnc3c3ccccc23)ccc1C	3.9%	1.4
CC1(C)CC(=O)c2cc(C(=O)NCCc3ccccc3)c(=O)[nH]c2C1	1.6%	-0.2
Cc1ccc(NC(=O)c2nc(S(=O)(=O)Cc3ccccc3F)ncc2Cl)cc1C	3.8%	1.0
CCCN1C(=O)C2(c3ccccc31)c1c(oc3cc(C)c(C)cc3c1=O)C(=O)N2CCCOC (stereo not drawn)	-0.8%	-0.1
COc1ccc(-c2noc(CC(=O)N(C)c3ccccc3F)n2)cc1	1.0%	-0.5
CCOc1ccc(CCNC(=O)c2cc(C)nc3c2c(C)nn3-c2cccc(F)c2)cc1	-0.7%	-0.8
O=C(Cn1c(=O)n(Cc2ccccc2)c(=O)c2sc3ccccc3c21)Nc1ccc(F)cc1	7.3%	-0.4
CCC1CN(S(=O)(=O)c2cc(-c3onc(C)c3C)ccc2C)c2cc(Cl)ccc2O1 (stereo not drawn)	6.3%	0.1
O=C(NC1CCCCC1)c1cnn2c1NC(=C1CC1)C=C2C(F)F	0.8%	-0.7
COc1ccc(Cl)cc1S(=O)(=O)Nc1cccc(-c2ccc(N3CCOCC3)nn2)c1	0.5%	-0.6
Clc1ccccc1N1CCN(Cc2nnc(-c3ccccc3)o2)CC1	0.4%	0.1

# Screens: PubChem BioAssay, National Center for Advancing Translational Sciences (NCATS)

# A portion of the library; count on the stated rates, not on these rows.
